# Assay outcomes: PubChem, National Center for Advancing Translational Sciences (NCATS)
# Vaccinia Venus: vaccinia inhibition (Venus reporter). Potency, µM (series often up to 36.5 µM), inactives show at the top dose activity change, negative = inhibition, most hits filed as inhibitors. Vaccinia virus Venus reporter expression, fluorescence. 330,000 tested, 0.46% active; active means well fitted inhibition curve with a large enough effect; inconclusive means small, poorly fitted or top-dose-only effect; inactive means no such curve, though single readings can be large or run the other way; tested in A549 cells; also: nearly all actives have a fitted effect of over 30% in size; inactives centre near -10
# Vaccinia mCherry: inhibitors of vaccinia virus infection (mCherry reporter signal) | 310,000 tested, 0.63% active | Vaccinia virus mCherry reporter infection, fluorescence; about a quarter of the inactives have no number | Potency, µM (doses to about 36.5 µM), without a hit: at the highest dose activity change, negative = inhibition, actives largely listed as inhibitors; active = well fitted inhibition curve with a large enough effect; inconclusive = small, poorly fitted or top-dose-only effect; inactive = no such curve, though single readings can be large or run the other way; tested in A549 cells; also: nearly all actives have a fitted effect of over 35% in size; inactives centre near -10
# An asterisk follows results filed as active; i = inactive; u = inconclusive; x = not tested or not shown; [ ] = dose if it differs, or a comment. % is scaled to controls: 0 for no effect and ±100 for the full control effect; potency is read from the fitted curve at half-maximal effect.
# Values in the order: Vaccinia Venus, Vaccinia mCherry
CC(C(=O)Nc1ccc(OC(F)(F)F)cc1)N1Cc2ccccc2C1=O (stereo not given)
  -12.9%, -15.0%
O=C(NCCc1csc(-c2ccccc2)n1)c1c(F)cccc1F
  -23.4%, -13.7%
O=C(O)CCc1nn2c3ccccc3n(CC(=O)O)c2nc1=O
  -13.7%, -8.3%
COc1ccc(C(C)(NC(C)=O)c2nc(-c3cc(F)cc(F)c3)cs2)cc1 (stereo not given)
  -15.8%, i
CCOc1ccc(NC(=S)NC(=O)/C=C/c2ccco2)cc1
  -28.8%, -20.6%
CN(Cc1nc2ccccc2c(=O)[nH]1)C(=O)c1cccc(NC(=O)c2cccs2)c1
  -7.7%, -2.2%
C[C@H](O)C#Cc1ccc2c(c1)O[C@@H](CN(C)C(=O)c1ccncc1)[C@@H](C)CN([C@H](C)CO)S2(=O)=O
  -12.9%, -13.6%
N#Cc1ccc(OCc2nnc(-c3ccc([N+](=O)[O-])cc3)o2)cc1
  4.4%, -3.1%
CCOC(=O)c1c(NC(=O)c2ccccc2Cl)sc2c1CCc1ccccc1-2
  -4.1%, -13.5%
CCOC(=O)N1CCN(CC(O)COc2ccccc2C(C)(C)C)CC1 (stereo not given)
  -16.4%, -2.8%
O=C(COc1ccc(Br)cc1)N(CCO)CCO
  -6.1%, -4.2%
Cn1c(=S)[nH]c2[nH]c(=O)cnc2c1=O
  2.0%, -0.1%
CC(=O)Nc1ccc(NC(=O)CSC2=NS(=O)(=O)c3cc(Cl)ccc3N2)cc1
  0.3%, -8.7%
COC(=O)c1ccc(Cn2cc(Cl)cn2)o1
  -7.2%, i
CC(C)(C)c1ccc(-c2nnc3sc(-c4ccccn4)nn23)cc1
  -16.9%, -24.3%
CCc1nc2ccc(C(=O)NCCc3c[nH]c4ccccc34)cn2c1N(C=O)CCC(C)C
  -23.1%, -29.7%
Cc1cccc(C(=O)NC(=S)N(C)C2CCCCC2)c1
  -18.4%, -4.1%
CC1C(=O)N(Cc2ccc([N+](=O)[O-])cc2)c2ccccc2N1C(=O)c1c(F)cccc1F (stereo not given)
  -21.9%, -19.7%
CCN1C(=O)c2ccccc2S(=O)(=O)c2ccc(C(=O)NCc3ccccc3OC)cc21
  4.5%, 1.6%
O=S(=O)(NC1CCCC1)c1ccc(F)cc1F
  -6.0%, -10.4%
CC(C)c1ccc(CC(=O)N2CCC2(C)C(=O)Nc2ccc3c(c2)OCO3)cc1 (stereo not given)
  -3.6%, 16.6%
CC(C(=O)NC1CCCC1)n1c(C2CC2)nc2ccccc21 (stereo not given)
  -6.2%, 6.4%
Cc1ccc(Cn2cnc3sc4c(c3c2=O)CCC4)c(C)c1
  -21.0%, -12.5%
CCCCCCCC(=O)OCC(=O)[C@@]1(O)CC[C@H]2[C@@H]3CCC4=CC(=O)CC[C@]4(C)[C@H]3[C@@H](O)C[C@@]21C
  -14.1%, -5.5%
C[C@H]1C(=O)N(C)CCN1C(=O)c1ccccc1OC1CCN(S(C)(=O)=O)CC1
  6.3%, i
CCOc1ccccc1CNC(=O)CCCc1cn(C)c2ccccc12
  -24.3%, -25.0%
Cc1cc(C(=O)OCC(=O)N2C(C)CCCC2C)c(C)o1 (stereo not given)
  -28.9%, x
COC(=O)c1cc(=O)c2c([N+](=O)[O-])ccc(OC)c2o1
  7.2%, -6.9%
COCCN(Cc1ccccc1)C(=O)c1c(C)nn(-c2ccccc2)c1C
  -3.3%, -1.3%
CCOC(=O)N1CCN(C(=O)c2ccc(N(Cc3ccccc3Cl)S(C)(=O)=O)cc2)CC1
  -10.2%, i
CCCS(=O)(=O)c1c(S(=O)(=O)CCC)c2cc(C(C)(C)C)ccn2c1C(=O)c1ccccc1
  -10.3%, -9.1%
O=c1cc(-c2ccc(O)c(-c3c(O)cc(O)c4c(=O)cc(-c5ccc(O)cc5)oc34)c2)oc2cc(O)cc(O)c12
  -18.7%, i
FC(F)(F)c1ccc(CN2C[C@@H]3C(c4ccccc4)C4(c5cccnc5)CC3(C4)[C@H]2c2ccccc2)cc1 (stereo not given in full)
  -25.2%, u
O=C(Cn1c(=O)nc(-c2ccccc2)c2ccccc21)N1CCN(c2ccc(F)cc2)CC1
  -6.2%, -11.9%
CCCCCCC(=O)N1CCCC(c2nc(-c3cccc(OC)c3)no2)C1 (stereo not given)
  -8.9%, i
Cc1ccc(NC(=O)C2CCCN(C(=O)c3ccc(Cl)cc3)C2)cc1C (stereo not given)
  -27.2%, -12.3%
CCOC(=O)c1c(NC(=O)/C=C/c2ccc(OCC)cc2)sc2c1CCC2
  -3.3%, -11.9%
CN1C(=O)c2ccccc2N(C)C1c1cccs1 (stereo not given)
  u, x
CCc1ccc(NC(=O)c2ccc(-n3cncn3)c([N+](=O)[O-])c2)cc1
  -18.1%, -26.2%
Cc1ccc(CSc2nnc3[nH]c(=O)cc(-c4ccccc4)n23)cc1
  -9.9%, i
Cc1ccnc(NS(=O)(=O)c2ccc(NC(=O)c3cccc(Cl)c3)cc2)n1
  -13.1%, -14.7%
O=C(c1cc(COc2ccc3ncccc3c2)on1)N1CCC[C@H]1CO
  -17.0%, -11.0%
COc1ccc(Cn2c(=O)n(-c3ccc(OC)cc3)c(=O)c3c2c2cc(OC)ccc2n3C)cc1
  -29.1%, u
COc1nc(SCC(=O)Nc2ccccc2Cl)nc(N(C)C)n1
  -14.8%, i
N[C@@H](Cc1ccccc1)c1nnc(SC/C=C/c2ccccc2)o1
  -6.7%, -18.1%
COCCO[C@H]1CC[C@@]2(C)C(=CCC3C2CC[C@@]2(C)C3CC[C@]2(C)O)C1 (stereo not given in full)
  -18.4%, -2.6%
Cc1ccc(S(=O)(=O)NCCc2nnc3ccc(N4CCOCC4)nn23)cc1
  -2.9%, -12.2%
O=C(Cn1c(-c2cccs2)cc2ccccc21)N1CCN(c2ccccc2F)CC1
  -9.4%, -4.9%
CCOc1ccc(S(=O)(=O)N2CCOCC2)cc1NC(=O)CN1C(=O)NC2(CCCC2)C1=O
  -24.4%, -24.4%
Cc1cc2c(cc1C)C(c1ccccc1F)CC(=O)N2 (stereo not given)
  -20.4%, i
Cc1cnc(CNC(=O)c2ccc3sc([C@@H]4O[C@H](CO)[C@H](O)[C@H](O)[C@H]4O)nc3c2)cn1
  3.9%, 43.6%[activator]
NCC(CP(=O)(O)O)c1ccc(Cl)cc1 (stereo not given)
  -8.4%, -12.0%
O=C(O)Cc1sc(-c2ccc(C(=O)O)cc2)nc1-c1ccccc1
  -13.8%, i
CCN1C(=NCc2cccc(C(F)(F)F)c2)N[C@@H](c2cccc(C(F)(F)F)c2)C(C(=O)OC)=C1C
  u, -17.6%
Fc1ccc(C(Nc2ccccn2)c2c[nH]c3ccccc23)cc1 (stereo not given)
  u, u
Cn1c(=O)n(C)c2cc(CNCCc3ccccc3)ccc21
  -0.1%, -4.2%
CCCCOc1ccc(/C(O)=C2/C(=O)C(=O)N(CCCOC)C2c2ccncc2)cc1 (stereo not given)
  -6.1%, x
CCN(C(=O)CSc1nc2ccc(O)cc2c(=O)n1-c1ccc(OC)c(OC)c1)C1CCS(=O)(=O)C1 (stereo not given)
  -4.9%, i
CCSc1nc(O)cc(=O)n1CC
  -8.6%, -20.3%
Cc1nnc2sc(SCc3ccccc3Cl)nn2c1=O
  -12.0%, -5.0%

# Among those listed so far, 2 have a COOH group.
# Values in the order: Vaccinia Venus, Vaccinia mCherry
O=C(O)CCc1nn2c3ccccc3n(CC(=O)O)c2nc1=O
  -13.7%, -8.3%
O=C(O)Cc1sc(-c2ccc(C(=O)O)cc2)nc1-c1ccccc1
  -13.8%, i

# Other results follow.
# Values in the order: Vaccinia Venus, Vaccinia mCherry
COc1cc(C(C(=O)NC(C)(C)C)N(Cc2ccc3c(c2)OCO3)C(=O)c2cnccn2)cc(OC)c1OC (stereo not given)
  -14.4%, i
COc1ccc(N2CCN(C(=O)NCc3ccc(OC)c(OC)c3)CC2)cc1
  -11.1%, -0.6%
COc1ccc(-c2cc(-c3cc(OC)ccc3O)[nH]n2)cc1
  u, u
O=C(c1ccco1)c1cn[nH]c1-c1ccc(Cl)cc1O
  -20.9%, u
Clc1ccc(C2=CC(c3ccco3)n3ncnc3N2)cc1 (stereo not given)
  -5.5%, -12.0%
C=CCNC(=O)/C(C#N)=C/c1cn(-c2ccccc2)nc1-c1cccs1
  -17.9%, -29.9%
CCCCOc1ccc(C(=O)N(Cc2ccco2)Cc2ccco2)cc1
  7.6%, 10.9%
CC1=CC(=C2C(=O)c3ccccc3C2=O)C=C(C)N1Cc1ccco1
  -25.0%, u
CSCCC(NC(=O)c1ccccc1Br)C(=O)NNC(=O)c1csc(N2CCOCC2)n1 (stereo not given)
  1.1%, -2.4%
CCC(=O)Nc1ccc(C(=O)c2ccccc2)cc1
  -22.7%, x
CC(C)[C@@H](CO)NC(=O)[C@H]1O[C@@H](n2cnc3c(N)ncnc32)[C@H](O)[C@@H]1O
  -4.9%, i
Cc1cccc(C)c1NC(=O)NN(C(=O)c1ccccc1)C(C)(C)C
  -10.5%, i
Nc1ccc2c(c1)COC2=O
  4.6%, -8.8%
CCOc1ccccc1NC(=O)CCc1c(C)nc2c3cccnc3nn2c1C
  -6.7%, -5.3%
Cc1cc(/C=C2\Cc3ccccc3C2=O)c(C)n1-c1ccccc1
  -14.5%, -14.3%
Fc1ccc(C[n+]2c(-c3ccccc3)cc(-c3ccccc3)cc2-c2ccccc2)cc1
  u, i
COc1cc(Cl)c(C)cc1NC(=O)c1ccccc1NC(=O)CN1CCOCC1
  -9.4%, -0.8%
Cc1ccc(OCC(=O)Nc2c[nH]c(=O)[nH]c2=O)cc1C
  -11.7%, i
CCN1C(=O)NC(=O)/C(=C\c2cn(CC(=O)N3CCCCC3)c3ccccc23)C1=O
  -2.2%, -10.0%
CC(C)(C)NC(=O)C(c1ccco1)N(Cc1ccc(F)cc1)C(=O)c1snc(C(N)=O)c1N (stereo not given)
  -1.3%, -5.3%
CN(CC(=O)Nc1cccc(F)c1)CC(=O)Nc1cccc(S(N)(=O)=O)c1
  6.1%, -4.4%
C=CCOc1c(Br)cc(/C=N/Nc2ccc(C(=O)O)cc2)cc1OCC
  -12.1%, -21.8%
CCN(C(=O)c1cn(C)c(=O)c2ccccc12)c1cccc(C)c1
  -17.0%, -17.6%
C/C(CC(=O)Nc1ccc(N(C)C)cc1)=N\NC(=O)c1ccncc1
  -5.3%, -17.1%
COc1ccccc1-c1cc2nc(C)c(CCC(=O)NC(C)CCc3ccco3)c(C)n2n1 (stereo not given)
  -10.8%, -8.3%
O=C(O)C1Cc2ccccc2CN1S(=O)(=O)/C=C/c1ccccc1 (stereo not given)
  -5.5%, i
Cc1cccc(N2C(=O)NC(=O)/C(=C/c3ccc(N4CCOCC4)cc3)C2=O)c1
  -2.9%, -8.8%
COc1ccccc1CC(=O)NCC1Cc2cc(F)cc(-c3cncnc3)c2O1 (stereo not given)
  -4.6%, -5.6%
COc1ccc(Nc2nc3ccccc3n2C)cc1
  -11.7%, -20.7%
O=C(NCc1ccccc1)C(c1cccnc1)N(C(=O)c1ccccn1)c1ccccc1F (stereo not given)
  4.8%, -18.4%
O=C(Nc1ccc(S(=O)(=O)N2CCOCC2)cc1)c1ccc(S(=O)(=O)N2CCOCC2)cc1
  -7.1%, -20.6%
Cn1c(SCc2ccccc2F)nc2ccccc2c1=O
  -2.3%, -11.4%
CCc1c(C(=O)N2CCOCC2)csc1C
  -1.2%, -15.4%
Cc1nn(-c2ccccc2Cl)c(Cl)c1/C=N/Nc1nc2ccccc2s1
  5.3%, -12.3%
O=C(COc1ccccc1)NCC(c1ccco1)N1CCN(c2ccccc2F)CC1 (stereo not given)
  u, u
O=C1[C@H]2[C@@H](c3ccc(C(F)(F)F)cc3)N[C@]3(CCCN(CC4CCCCC4)C3=O)[C@H]2C(=O)N1Cc1ccccc1
  u, -7.0%
CCOC(=O)c1ccc(NC(=S)NCCc2ccc(OC)c(OC)c2)cc1
  -10.6%, -9.5%
COc1ccc(CN(CC(=O)NCc2ccc(F)cc2)C(=O)CCC(=O)Nc2cc(C)ccn2)cc1
  -10.6%, i
O=C(N/N=C/C(Br)=C\c1ccccc1)c1n[nH]c2c1CCC2
  u, u
COc1ccccc1N1CC(C(=O)OCC(=O)Nc2cc(C)on2)CC1=O (stereo not given)
  3.0%, -13.5%
c1ccc2[nH]c(CSc3nc4ccccc4o3)nc2c1
  -17.5%, i
CN(C)CC1CSCCC1(O)c1ccc(C(F)(F)F)cc1 (stereo not given)
  -11.7%, i
Cc1noc(C)c1S(=O)(=O)N(C)C[C@H]1Oc2c(NC(=O)Nc3ccccc3)cccc2C(=O)N([C@H](C)CO)C[C@@H]1C
  1.3%, 5.9%
NC(=O)c1nsc(C(=O)N(c2cccc(F)c2)C(C(=O)NCC2CCCO2)c2ccc3ncccc3c2)c1N (stereo not given)
  -10.0%, i
CCN(CC)C(=S)SC1=CCS(=O)(=O)C1
  -9.7%, -14.4%
CC(=O)Nc1nnc(CSCc2ccccc2F)s1
  -18.7%, -20.9%
COc1cccc(CCNCc2ccc(SC)cc2)c1
  -7.2%, i
CCOC(=O)C1CCN(C(=O)COc2ccc([N+](=O)[O-])cc2)CC1
  -8.2%, -22.0%
NC(=O)c1ccc[n+](CC(=O)OCCC23CC4CC(CC(C4)C2)C3)c1
  -13.3%, -15.4%
